NPYLR7 agonist: activates Aedes aegypti NPYLR7 receptor; HEK293T NPYLR7/Galpha15, GCaMP6s calcium fluorescence; hit rate 0.15% among 270,000; activation, % at 10 µM; AID 1259423; in the data active = activation above about 40%;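 also: 0% = vehicle and 100% = reference agonist at the receptor; some compounds past the cut are filed as inactive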
NPYLR7 agonist max-min: also measured in NPYLR7 agonist; calls as there; activation, %; measured here: Max-Min RFU normalised activation; some inactives read as strong as hits;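 span of the calcium signal over five minutes; 0% = vehicle and 100% = native peptide agonist; compound fluorescence can raise it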
Numbers without * were called inactive; & = joins results of further samples. This is a subset; count on the stated rates, not on these rows.

Every second line gives: NPYLR7 agonist	NPYLR7 agonist max-min
> COc1ccc(OC)c(C2c3cccn3-c3ccccc3N2C(=O)CN(C(=O)NC23CC4CC(CC(C4)C2)C3)C2CC2)c1 (stereo not given)
    16	15
> CCOCCOc1nc(-c2ccc(Cl)c(Cl)c2)n(-c2cccc(NC(=O)c3cccc(OC)c3)c2)n1
    -4	-4
> CC(Cc1cccs1)N(C)S(=O)(=O)c1cnn(C)c1 (stereo not given)
    3	0
> O=C(c1ccccc1)N1CCN=C1SCc1cccnc1
    -3	-7
> CCc1cc2c(=O)n(NC(=S)NC(C)C)cnc2s1
    4	10
> CC(C)N1C(=O)COCc2cc(-c3cccnc3)ccc21
    6	1
> CCc1nc2ccc(C(=O)N3CCN(C(C)=O)CC3)cn2c1N(CC)Cc1cccc(Br)c1
    5	1
> CCOc1ccccc1N1CCN(C(=O)c2cc(-c3ccccc3)nc3cc(-c4ccccc4)nn23)CC1
    9	7
> CC(C)(C)C(=O)CN1C(=O)C(=O)c2cc(Br)ccc21
    -2	-3
> Cc1cc(C)c(S(=O)(=O)NC2CCN(C3CC3)CC2)c(C)c1
    11	6
> CSc1cccc(NS(=O)(=O)c2cnc[nH]2)c1
    9	4
> CCCOc1nn(CCC)cc1C(=O)NCc1ccccc1Cl
    0	-9
> CCc1nnc(NC(=O)c2nn(-c3ccccc3)nc2C)s1
    2	2
> CN(Cc1ccc(C(=O)Nc2cnn(C)c2)cc1)Cc1ccc2c(c1)OCO2
    -6	-7
> CCOP(=O)(Cc1ccc(NC(=O)CCCCC2CCSS2)cc1)OCC (stereo not given)
    -19	-24
> Cc1cccc(N2C(=O)N(c3cccc(Cl)c3)C3CS(=O)(=O)CC32)c1 (stereo not given)
    0	-4
> CS(=O)(=O)c1ccc(-n2ncc3c2CCN(S(=O)(=O)c2cccs2)C3)cc1
    2	14
> O=C(c1ccco1)N1CCC(Cc2ccc(F)cc2)CC1
    -1	9
> O=c1c2c([nH]n1CCO)CN(Cc1cc3n(n1)CCNC3)CC2
    7	4
> CNC(=O)CN1C(=O)CCN(C(=O)NC2CCCC2)CC(OC)c2ccccc21 (stereo not given)
    5	9
> CN(CC(=O)NCC(F)(F)F)C(=O)CC1OC(=O)c2ccccc21 (stereo not given)
    2	2
> CCOC(=O)C1(C/C=C/c2ccccc2)CCCN(Cc2ccc(CO)o2)C1 (stereo not given)
    5	0
> O=C(CSc1nc(=O)n(Cc2ccncc2)c2c1CCCC2)N1CCN(c2ccccc2)CC1
    2	0
> COc1ccc(C2=NN3C(C2)c2cc(Cl)ccc2OC32CCCCC2)cc1 (stereo not given)
    0	-1
> CCCNC(=O)C(C)Sc1nc(C)c(C)o1 (stereo not given)
    -3	-5
> O=[N+]([O-])c1ccc2[nH]c(O)c(N=Nc3ccc(C(F)(F)F)cc3[N+](=O)[O-])c2c1
    4	10
> Cc1ccc2[nH]cc(-c3ncccc3C(=O)N3CCCC3)c2c1
    1	0
> Cc1ccc(-c2cc(C(=O)NC(C)c3ccccc3)n(-c3cccc([N+](=O)[O-])c3)n2)cc1C (stereo not given)
    12	8
> c1ccc(C(NCC2CCCCO2)c2ccncc2)cc1 (stereo not given)
    12	9
> O=c1[nH]c2ccc(Br)cc2c(-c2ccccc2)c1N=Cc1ccccc1O
    3	1
> O=c1ccc(-c2ccc(F)cc2)nn1CCNS(=O)(=O)c1cccs1
    3	2
> Cc1ccc(CN2C(=O)C(C)Sc3ccccc32)cc1 (stereo not given)
    4	2
> CC(C)(C)c1ccc(Cn2cccc2CN(CC(O)CN2CCOCC2)CC2CCCCC2)cc1 (stereo not given)
    -3	4
> Cc1cc2nnc(SCC(=O)Nc3ccccc3Cl)n2c2ccccc12
    0	-5
> Cc1cccc(C(=O)NC(C(=O)NC2CC2)C2CCN(C(=O)c3ccc(C(F)(F)F)cc3)CC2)c1 (stereo not given)
    6	3
> C[C@H]1[C@@H]2[C@@H](O)C([C@H](C)C(=O)N(C)CCC#N)CC[C@@]2(C)CC[C@@H]1NS(C)(=O)=O (stereo not given in full)
    -9	-16
> COc1cc(Cl)c(C)cc1NC(=O)N1CCN(S(=O)(=O)N2CCN(C)CC2)CC1
    1	0
> CCS(=O)(=O)Nc1cc2c3c(c1)CCC(=O)N3CCC2
    -2	-4
> O=C(NCCn1ccnc1)C1CC1c1ccc(Cl)cc1Cl (stereo not given)
    -22	-23
> CC(C)NC(=O)NCCc1ccc(NC(=O)c2cc(C(F)(F)F)cc(C(F)(F)F)c2)cc1
    11	10
> CCc1ccc(C2C(C(=O)OC)=C(C)N(C)C(C)=C2C(=O)OC)cc1
    -3	-7
> COc1ccc(-c2cc(-c3ccc(OC)cc3)c(C#N)c(SCC(=O)c3ccccc3)n2)cc1
    -2	-8
> CC(C)(C)C1CCc2c(sc(NC(=O)c3cnn4c(C(F)(F)F)cc(-c5ccccc5)nc34)c2C#N)C1 (stereo not given)
    -8	-12
> COc1ccc(Cn2ccnc2CN(CCN2CCOCC2)C(=O)C2CCCC2)cc1
    16	16
> COc1cc(-c2nc(CN3CCN(c4ccccc4)C(=O)C3)c(C)o2)ccc1F
    -2	-1
> Cc1cc(NC(=O)c2ccc(Cl)cc2)n(-c2nc3c(c(=O)[nH]2)CCC3)n1
    8	1
> O=C1NCC2(CCCN(C(=O)c3cnc(CN4CCCC4)s3)C2)O1 (stereo not given)
    3	2
> N#Cc1ccccc1CO[C@]1(C(=O)NC2CC2)CC(OCc2cccc(C(F)(F)F)c2)[C@H](O)[C@H](O)C1 (stereo not given in full)
    5	6
> Cn1cc(C(=O)NC(Cn2cccn2)c2ccccc2)ccc1=O (stereo not given)
    2	-2
> COCc1nc(-c2ccc(CN3CCN(C(=O)c4ccc(NC(C)=O)cc4)CC3)cc2)no1
    3	5
> O=C(Cc1cc(Cl)c2c(c1)OCCCO2)N1CCCCCC1c1ccncc1 (stereo not given)
    5	3
> COc1cccc(-c2n[nH]c(=S)n2-c2ccccc2)c1
    -7	-12
> O=C(NC(c1cccnc1)c1ccc2c(c1)OCO2)C1CCN(CCCOc2ccc(F)cc2)CC1 (stereo not given)
    29	20
> CNS(=O)(=O)c1ccc(OC)cc1
    -2	0
> Cc1cc(C)n(CCNC2CCN(c3ccc4c(c3)OCO4)CC2)c(=O)n1
    19	11
> COc1cc2ccccc2cc1C(=O)Nc1ccc(-c2nc3cc(C)ccc3o2)cc1
    -11	-15
> Cc1nccn1CCCC(=O)N1Cc2cnc(CC(C)C)nc2C1
    -5	-8
> O=c1c2ccccc2c(-c2ccc(F)cc2)nn1-c1cc(Cl)ccc1[N+](=O)[O-]
    2	-4
> CSc1ccc(CN2CCC2(C)C(=O)NCCCN2CCCC2=O)cc1 (stereo not given)
    -1	-3
> Cn1cnc(S(=O)(=O)N2CCN(c3nccnc3NS(=O)(=O)c3ccc(Oc4ccccc4)cc3)CC2)c1
    -5	-11

More structures:
SMILES	NPYLR7 agonist	NPYLR7 agonist max-min
COc1ccc(-n2nc(-c3ccc(OC)cc3OC)cc2C(=O)N2CCN(Cc3ccc4c(c3)OCO4)CC2)cc1	19	24
COc1ccc(C(=O)N2CCSC23C(=O)N(Cc2c(F)cccc2F)c2ccc(C)cc23)cc1 (stereo not given)	1	2
O=C(Cn1ccccc1=O)Nc1ccc2c(c1)OC1(CCCC1)O2	10	5
Cn1ccnc1CN1CCc2[nH]nc(C(c3ccccc3)c3ccccc3)c2C1	3	2
O=S1(=O)CCN2C(c3ccc4c(c3)CCC4)=CSC2=N1	-2	-4
CCOC(=O)C1CCCN(C2CC(=O)N(c3ccc(C)cc3)C2=O)C1 (stereo not given)	-3	-10
Cc1ccc(-n2nc3c(c2NC(=O)/C=C\c2ccc4c(c2)OCO4)CSC3)cc1	-3	-4
COc1ccc(C(=O)CSc2nc(=O)n3cc(C)ccc3n2)cc1	3	4

Complete entries from above.
Entry for `O=C(Cn1ccccc1=O)Nc1ccc2c(c1)OC1(CCCC1)O2` = NPYLR7 agonist = 10; NPYLR7 agonist max-min = 5
Entry for `O=S1(=O)CCN2C(c3ccc4c(c3)CCC4)=CSC2=N1` = NPYLR7 agonist = -2; NPYLR7 agonist max-min = -4

(list continues)
SMILES	NPYLR7 agonist	NPYLR7 agonist max-min
OCc1cccnc1-c1ncccc1CO	-9	-13
CCC(C)N(Cc1ccc(OC)c(OS(C)(=O)=O)c1)C(=O)c1ccccc1Cl (stereo not given)	-7	3
COc1ccc(C(=O)NC(C)c2cnn(-c3ccccn3)c2C)o1 (stereo not given)	7	-1
CCc1ccc(C(=O)Nc2ccc(N(C)C)nc2)o1	0	-1
COc1ccc(S(=O)(=O)Nc2cc(S(=O)(=O)Nc3cccc(Cl)c3)ccc2O)cc1	-2	-2
Cc1ccc(-n2ncc3c(C)nnc(SCC(=O)Nc4ccc(C(N)=O)cc4)c32)cc1C	-7	-11
CCN1CCN(C(C)CNC(=O)Cn2cnnn2)CC1 (stereo not given)	7	4
COC(=O)C(=Cc1cc(C)n(CC(F)(F)F)c1C)C(C)=O	-5	-10
Cc1ccc(C(=O)CSc2nnc(NC(=O)COc3ccccc3)s2)c(C)c1	24	22
Cc1cc(C)cc(N2C(=O)NC(=O)/C(=C\c3ccc(N4CCOCC4)o3)C2=O)c1	4	2
Clc1c(CSc2nc3ccccc3s2)nc2ncccn12	-5	-5
O=C(C1CCCOC1)N1CCCc2cccc(F)c21 (stereo not given)	2	1
CC(=O)n1c(SCC(=O)Nc2cccc(C(F)(F)F)c2)nc2ccccc21	-4	-12
Cc1nn(C)c2ncc(C(=O)NC(C3CC3)C3CC3)cc12	0	-2
CCOc1ccccc1C1c2[nH]c3ccccc3c2CCN1Cc1cc2ccccc2[nH]c1=O (stereo not given)	11	-2
CN(Cc1ccccc1)C(=O)CSc1nncn1-c1ccccc1	-12	-9
O=S(=O)(NCCN1CCCc2ccccc21)NCc1ccccc1	-1	-6
CCOC(=O)CCC(=O)N1CCN(C(c2ccccc2)c2ccc(C)cc2)CC1 (stereo not given)	-3	-1
Cc1noc(C)c1CCC(=O)N1CCc2c([nH]c3ccccc23)C1CC(C)C (stereo not given)	4&-6	0&-10
CCCc1[nH]n(-c2cccc(Cl)c2)c(=O)c1C1=C([n+]2cccc(C)c2)C(=O)N(Cc2ccc(F)cc2)C1=O	-7	6
Cc1nc2n(n1)C(=O)C(C(c1ccc([N+](=O)[O-])cc1)N1CCC(C(N)=O)CC1)S2 (stereo not given)	5	3
O=C(Cn1cnc2ccc(Br)cc2c1=O)N1CCOCC1	-3	-4
Clc1cccc(/C=N\Nc2nc(N3CCOCC3)nc(N3CCOCC3)n2)c1Cl	-5	-8
COc1ccccc1-c1nc2cc(C)cc(C)n2c1NC(C)(C)CC(C)(C)C	-1	1

Some of the entries so far, as labelled records.
Cc1noc(C)c1CCC(=O)N1CCc2c([nH]c3ccccc23)C1CC(C)C (stereo not given)
- NPYLR7 agonist: 4&-6
- NPYLR7 agonist max-min: 0&-10
COc1ccccc1-c1nc2cc(C)cc(C)n2c1NC(C)(C)CC(C)(C)C
- NPYLR7 agonist: -1
- NPYLR7 agonist max-min: 1
CCOC(=O)CCC(=O)N1CCN(C(c2ccccc2)c2ccc(C)cc2)CC1 (stereo not given)
- NPYLR7 agonist: -3
- NPYLR7 agonist max-min: -1
O=S(=O)(NCCN1CCCc2ccccc21)NCc1ccccc1
- NPYLR7 agonist: -1
- NPYLR7 agonist max-min: -6

Following part
SMILES	NPYLR7 agonist	NPYLR7 agonist max-min
CC(C)N(Cc1nccn1Cc1ccccc1C(F)(F)F)C(=O)c1ccco1	15	24
CC(C)c1nnc2sc(-c3ccn4nnnc4c3)nn12	-1	9
CN(C(=O)Nc1ccn(CCC#N)n1)C1CCCCCCC1	3	-1
CC1CCN(c2nc(-c3ccccc3)nc3c2CN(C(=O)Nc2cccc(Br)c2)CC3)CC1	-1	3
COc1ccc(CN2CC(CN3CCOCC3)Oc3ccncc3S2(=O)=O)cc1 (stereo not given)	-5	-7
CCOC(=O)C1CCN(Cc2nnc(CC3CCNCC3)n2C)CC1	-3	10
O=c1oc2ccc(Br)cc2cc1Sc1ccc([N+](=O)[O-])cc1	7	4
Cc1nn(C)c(C)c1CN(C(=O)Cc1[nH]nc2ccccc12)C1CC1	17	13
Cc1cc(C(F)(F)F)nc(CCNC(=O)[C@H](N)CC(C)C)n1	1	11
CCN(CC)c1ccc(/C=C2/CCC/C2=N\Nc2nc(C)cc(C)n2)cc1	6	4
O=C(OCc1ccccc1)c1cccnc1	-11	-16
O=S(=O)(/C=C/c1ccccc1)NCC1CCN(S(=O)(=O)C2CC2)CC1	-9	-11
CC(=O)N1CC=C(c2ccc(OCc3ccc(C#N)cc3)cc2)CC1	9	4
Cc1ccc(NC(=O)CSc2nnc(CCC(=O)O)c(=O)[nH]2)cc1Cl	6	2
COc1ccccc1Cn1c(C)c(C(=O)NCc2ccc(Cl)c(Cl)c2)sc1=O	8	5
COC(=O)c1ccc(Cn2nc(C)c3cnn(-c4ccccc4C)c3c2=O)o1	-7	-7
Cc1ccccc1CSCC(=O)c1ccc[nH]1	13	8
O=C(NCCC(=O)N1CCCC(C(F)(F)F)C1)c1ccc(Cl)cc1 (stereo not given)	-2	-3
Cc1ccc2oc(C(=O)Nc3ccc4c(c3)NC(=O)C(C)O4)cc(=O)c2c1 (stereo not given)	5	2
CC(=O)N1CCCC(Cn2cnc(-c3ccccc3)c2-c2cc(C)[nH]n2)C1 (stereo not given)	-5	-2
CCOc1ccc(S(=O)(=O)N2CCOCC2)cc1NC(=O)CSC	-6	11
CC1(C)CC(Br)CCC1(C)C(=O)O (stereo not given)	-8	-10
COc1ccc(NC(=O)Cn2nnn(-c3cccs3)c2=O)c(OC)c1	7	5
c1ccc2[nH]c(SCCOCCSc3nc4ccccc4[nH]3)nc2c1	2	0
Cc1nc(N)c(C#N)c(-c2cccs2)c1C	1	8

In the list so far, these have a COOH group:
SMILES	NPYLR7 agonist	NPYLR7 agonist max-min
Cc1ccc(NC(=O)CSc2nnc(CCC(=O)O)c(=O)[nH]2)cc1Cl	6	2
CC1(C)CC(Br)CCC1(C)C(=O)O (stereo not given)	-8	-10
